Screening results deposited in PubChem by National Center for Advancing Translational Sciences (NCATS).
Cruzain inh Det: cruzain (T. cruzi) inhibition with detergent; P25779; purified cruzain, Z-FR-AMC fluorescence, 0.01% Triton; Potency, µM, inactives show max response, negative = inhibition, hits mostly inhibitors; 0.43% of 200,000 active;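 also: plate controls were neutral wells for no effect and buffer without enzyme for full effect; nearly all actives have a fitted effect of over 40% in size; top concentration of the series not given in the record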
Target sequence (P25779 123-467 limits assumed): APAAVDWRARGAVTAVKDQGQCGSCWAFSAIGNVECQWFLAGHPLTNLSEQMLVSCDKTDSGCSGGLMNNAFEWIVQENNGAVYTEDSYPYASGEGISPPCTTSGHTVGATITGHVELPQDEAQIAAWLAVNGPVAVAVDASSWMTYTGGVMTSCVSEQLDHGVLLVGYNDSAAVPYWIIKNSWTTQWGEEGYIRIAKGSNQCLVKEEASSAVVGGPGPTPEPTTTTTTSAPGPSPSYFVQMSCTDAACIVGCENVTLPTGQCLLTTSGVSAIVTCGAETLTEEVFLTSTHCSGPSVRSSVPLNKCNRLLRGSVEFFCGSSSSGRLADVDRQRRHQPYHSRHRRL
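Enzyme 1.5 nM, Z-FR-AMC 2 uM, NaOAc 100 mM pH 5.5, DTT 5 mM, Triton X-100 0.01%; 15 min RT compound preincubation; kinetic ex360/em450, 60 s delta.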
2A StopGo: FMDV 2A StopGo reporter, luciferase signal | human cells with a luciferase reporter of 2A StopGo recoding; control for the full effect not named in the record | Potency, µM (doses to about 57.9 µM), without a hit: top-dose signal change, negative = less light | 1.2% of 410,000 active | AID 1159524; active = well fitted falling curve with a large enough effect; inconclusive = small, poorly fitted or top-dose-only effect; inactive = no such curve, though single readings can be large or run the other way; tested in HEK293T cells; also: nearly all actives have a fitted effect of over 45% in size; luciferase light after 4 h
Cruzain inh noDet: cruzain (T. cruzi) inhibition without detergent | AID 1476 | purified cruzain, Z-FR-AMC fluorescence, no detergent | 2.3% of 200,000 active | P25779 | Potency, µM, for inactives: max response, negative = inhibition, usual class: inhibitors;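 also: plate controls were enzyme without inhibitor for no effect and buffer without enzyme for full effect; nearly all actives have a fitted effect of over 40% in size; top concentration of the series not given in the record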
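Detergent-free condition (0.00005% Triton X-100) in acetate buffer pH 5.5 with DTT. 1.5 nM enzyme and compound were pre-mixed 15 min, then 2 uM Z-FR-AMC substrate added; reaction progress from fluorescence change between first and third reads (60 s).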
An asterisk follows results filed as active; ? = inconclusive; & = joins results of further samples; ! = repeats disagree; [ ] = remark or other dose. Unless noted, calls follow the shape of the dose curve; as a rule, active = well fitted curve in the direction sought with a large enough effect; inconclusive = small, poorly fitted or top-dose-only effect, or another doubt; inactive = no such curve, though single readings can be large; an effect the other way counts as inactive or inconclusive. Unless noted, % is scaled to controls: 0 for no effect and ±100 for the full control effect; potency is read from the fitted curve at half-maximal effect.

SMILES	Cruzain inh Det	2A StopGo	Cruzain inh noDet
COc1ccc2[nH]cc(CCNc3nc(-c4cccc(NS(C)(=O)=O)c4)nc4ccccc34)c2c1	-4.2%	-8.4%	-20.9%
CN(C)c1ncc2nc(-c3ccc(Cl)cc3)c(=O)n(Cc3cccs3)c2n1	8.4%	-15.0%	-6.0%
COCC(=O)N1CCC[C@@]2(CCN(c3ccccc3)C2)C1	-0.5%	6.8%	8.1%
O=C(O)COc1cccc(-c2ocnc2-c2nc(-c3ccccc3)c(-c3ccccc3)o2)c1	4.0%	-13.5%	7.94µM*
COC(=O)N1CCC[C@@]2(CCN(c3ccccc3)C2)C1	-0.3%	-8.9%	9.0%
Cc1cnc(CNc2nc(-c3cccc(NS(C)(=O)=O)c3)nc3ccccc23)cn1	-0.5%	1.8%	-2.3%
COC(=O)N1CCC2(CC1)CN(C(=O)Nc1ccccc1)C2	0.0%	22.2%	-15.4%
CC(=O)NCCNc1ncncc1-c1ccccc1C	-1.2%	-11.3%	14.4%
C=C1CCC2C(CC2(C)C)C(=O)CCC1O (stereo not drawn)	4.5%	29.8%	5.6%
O=C(O)CCC(=O)OC[C@@H](NC(=O)C(Cl)Cl)C(O)c1ccc([N+](=O)[O-])cc1 (stereo partly drawn)	1.4%	-22.9%	-1.8%
CN(C)c1cc(-c2cccc(NS(C)(=O)=O)c2)ncn1	12.6µM*	0.5%	15.8µM*
COc1cccc(Nc2ncc3nc(CCc4ccccc4)c(=O)n(Cc4cccs4)c3n2)c1	2.5%	-15.8%	3.98µM*
CCCC[N+]12C3CC(C(CC)[C@H]1O)[C@@H]1C(O)C4(C[C@@H]12)c1ccccc1N(C)C34 (stereo partly drawn)	6.6%	-22.9%	-1.7%
CC(=O)OC1C[C@@]2(C)C(c3ccoc3)C[C@H]3O[C@@]32[C@@]2(C)C(=O)C(O)=C3C(C)(C)C(=O)C=C[C@]3(C)C12 (stereo partly drawn)	-1.5%	7.94µM*	?
CCOC(=O)c1c(C)cc(O)c(C)c1O	1.4%	22.4%	-3.2%
COc1ccc(Oc2ncc3nc(-c4cccs4)c(=O)n(Cc4cccc(OC)c4)c3n2)cc1	2.4%	-7.4%	12.6µM*
COc1ccc(NC(=O)N2CCCC3(CCN(C(=O)c4csnn4)CC3)C2)cc1	1.1%	-5.3%	-10.9%
O=c1c(-c2ccc(Cl)cc2)nc2cnc(N3CCOCC3)nc2n1C1CC1	1.8%	-5.9%	-1.2%
FC(F)(F)c1ccccc1-c1nc(NC2CCNCC2)c2ccccc2n1	5.6%	-14.0%	9.1%
N#C[C@H](Cc1ccc(O)cc1)c1ccc(O)cc1	-0.4%	-13.4%	5.9%
COc1ccc(Oc2ncc3nc(-c4cc(F)cc(F)c4)c(=O)n(C[C@H]4CCCO4)c3n2)cc1	-2.5%	-17.0%	2.3%
COc1ccc(NC(=O)N2CCCC3(CCN(C(=O)Oc4ccccc4)CC3)C2)cc1	3.5%	-17.2%	-4.7%
CN1CC[C@@]2(c3cccc(O)c3)Cc3nc4ccccc4cc3C[C@H]2C1	-1.6%	-20.6%	2.2%
COc1ncc2nc(-c3ccc(F)cc3)c(=O)n(CCc3ccccc3)c2n1	3.5%	-8.2%	-0.7%
CC(CO)NC(=O)C1C=C2c3cccc4[nH]cc(c34)C[C@H]2N(C)C1 (stereo partly drawn)	-3.6%	5.5%	-12.8%
COc1ccccc1-c1cc(Nc2ccn[nH]2)ncn1	3.5%	-18.9%	-16.2%
Cn1cc(C(=O)C(=O)N[C@H]2CN3CCC2CC3)c2ccccc21	-3.0%	-9.1%	-6.6%
COc1ccc(-c2nc3cncnc3n(-c3ccccc3)c2=O)cc1	4.6%	0.2%	-14.2%
COc1ccccc1CCn1c(=O)c(-c2ccccc2)nc2cncnc21	-2.4%	-28.9%	2.0%
Cc1noc(C)c1-c1cncnc1NCCN1CCOCC1	2.0%	14.5%	10.5%
COc1ccc(C(=O)N2CCC3(CCN(C(=O)Nc4cccc(F)c4)CC3)CC2)cc1	2.1%	?	7.4%
COC(=O)[C@]1(C)CC[C@@]2(C)CC[C@@]3(C)C4=CC=C5C(=CC(=O)C(O)=C5C)[C@@]4(C)CC[C@@]3(C)C2C1 (stereo partly drawn)	2.2%	10µM*	-13.8%
O=c1c(-c2ccc(Cl)cc2)nc2cnc(N3CCOCC3)nc2n1-c1ccccc1	-1.5%	-2.5%	3.5%
NC1(C(=O)O)CCCC1	0.7%	-0.2%	8.9%
COc1c2c(cc3c1OCO3)C13C=CC(OC)CC1N(C2)CC3O (stereo not drawn)	10.0%	-4.7%	-3.4%
COc1ccccc1-c1cncnc1Nc1ccc(F)cc1	2.9%	2.5%	-7.2%
CC[C@H](Oc1ccc(Cl)cc1)C(=O)OC1C[C@H]2CC[C@@H](C1)N2C (stereo partly drawn)	3.3%	-17.4%	9.4%
C[C@@H]1CC[C@H]2[C@H](C)[C@H]3CC[C@H]4C5[C@@H](O)CC6=CC(=O)CC[C@]6(C)[C@H]5C[C@H]4C3C(=O)N2C1 (stereo partly drawn)	5.0%	?	7.2%
COc1ccc(-c2nc3cnc(N4CCN(C)CC4)nc3n(-c3ccc(OC)cc3)c2=O)cc1	3.3%	-10.2%	-5.9%
COc1ccccc1CNc1ccnc(-c2cccc(NS(C)(=O)=O)c2)n1	-5.1%	-23.3%	-6.2%
CC(=O)Oc1ccc2c(c1)CCC1C2CC[C@@]2(C)C1CC(OC(C)=O)C2OC(C)=O (stereo partly drawn)	1.6%	18.3%	-2.3%
Cc1noc(C)c1-c1cc(NC2CC2)ncn1	0.7%	-11.7%	2.7%
CCCCCCCCCCCCCCCC(=O)NC(C)C	-0.1%	-11.8%	4.1%
O=C(/C=C/c1ccccc1)NC(NC(=S)Nc1cccc2cccnc12)C(Cl)(Cl)Cl (stereo not drawn)	-0.3%	-0.5%	?
COc1ccc(/C=C/C(=O)c2ccc(O)cc2O)cc1OC	-2.0%	22.9%	6.4%
COc1ccc(-c2nc3cnc(N4CCNCC4)nc3n(-c3ccc(OC)cc3)c2=O)cc1	-0.6%	-2.7%	-7.1%
C[C@]12CCC3c4ccc(O)cc4CCC3C1CCC2OC(=O)CCC1CCCC1 (stereo partly drawn)	4.1%	-1.6%	-27.8%
C[C@@H]1O[C@@H](O[C@H]2CC[C@]3(C=O)C4CC[C@]5(C)[C@@H](C6=CC(=O)OC6)CC[C@]5(O)[C@@H]4CC[C@]3(O)C2)[C@H](O)[C@H](O)[C@H]1O (stereo partly drawn)	3.3%	?	-10.4%
C=C1CCC(OC(C)=O)/C(C)=C/CC2[C@H]1CC2(C)C (stereo partly drawn)	2.0%	-12.5%	?
COCC#CCN1CCCCC1c1cccnc1 (stereo not drawn)	-2.7%	-13.4%	1.9%
CCCCCCCCCCCCC[N+](C)(C)Cc1ccccc1	-11.2%	28.2µM*	-7.5%
N#Cc1cccc(-c2nc(NCc3cccnc3)c3ccccc3n2)c1	1.5%	-17.9%	2.1%
CC(=O)O[C@](C)(CCC=C(C)C)C1CC=C(C)CC1 (stereo partly drawn)	3.7%	-6.7%	5.9%
O=C(c1ccco1)N1CCC[C@@]2(CCN(Cc3ccncc3)C2)C1	0.4%	49.3%[activator]	-2.6%
CN(C)Cc1ccccc1-c1nccc(N(C)C)n1	2.7%	-1.6%	4.1%
COc1ccccc1CNc1nc(-c2ccc(C(=O)N(C)C)cc2)nc2ccccc12	-5.5%	22.5%	-4.1%
CS(=O)(=O)N1CCC2(CC1)CN(c1ccccn1)C2	-1.1%	-4.0%	1.6%
O=C(c1csnn1)N1CCC2(CCCN(c3ncccn3)C2)CC1	-4.5%	-2.3%	7.7%
CCCCCCCCC#CCC#CCC#CCCCC(=O)O	2.3%	-3.6%[6.7 µM]	-6.4%
CN(C)Cc1ccccc1-c1nc(N(C)Cc2ccco2)c2ccccc2n1	2.7%	-10.0%	-1.8%
Next results follow:
SMILES	Cruzain inh Det	2A StopGo	Cruzain inh noDet
COc1ccc(CNc2ncnc3ccc(-c4cccc(C#N)c4)cc23)c(OC)c1	-5.8%	-21.6%	4.4%
O=C(Oc1ccccc1)N1CCC[C@@]2(CCN(Cc3ccccc3)C2)C1	2.4%	-7.6%	-2.1%
COc1ccc(NC(=O)N2CCCC3(CCN(S(C)(=O)=O)CC3)C2)cc1	0.9%	7.1%	1.3%
COc1ccc(NC(=O)N2CC3(CCN(C(=O)c4cnccn4)CC3)C2)cc1	1.8%	-0.5%	-8.0%
O=C(c1ccco1)N1CCC2(CCCN(c3ccccn3)C2)CC1	0.6%	-5.1%	-7.0%
COc1ccccc1CN1CC[C@@]2(CCCN(C(=O)c3cc(C(F)(F)F)cc(C(F)(F)F)c3)C2)C1	4.2%	-15.4%	0.5%
CN(C)c1ccc(C(=C2C=CC(=[N+](C)C)C=C2)c2ccc(N(C)C)cc2)cc1	-21.3%&-6.3%	17.8µM*	20µM*!
CCN1C[C@@]2(OC(=O)c3ccccc3NC(C)=O)CCC(OC)[C@@]34C5CC6C(OC)C[C@@](O)(C(CC23)[C@@H]14)C5(O)C6OC (stereo partly drawn)	-0.1%	-6.9%	0.1%
O=c1c(CCc2ccccc2)nc2cnc(N3CCNCC3)nc2n1-c1ccccc1	1.5%	0.0%	-2.1%
FC(F)(F)c1ccccc1-c1cncnc1Nc1ccccc1	0.8%	-10.3%	-8.7%
Cc1noc(C)c1C(=O)N1CCC2(CCN(C(=O)NC(C)C)CC2)CC1	1.4%	-9.9%	-4.4%
CCCCC/C=C\C/C=C\CCCCCCCC(=O)O	-3.4%&-23.7%	4.7%[6.7 µM]	5.0%&-12.3%
CCC(=O)OC1C2CC3=C4CC(=O)OC(c5ccoc5)[C@]4(C)CCC3[C@@](C)(C2=O)C(CC(=O)OC)C1(C)C (stereo partly drawn)	0.9%	-9.8%	4.3%
CC[C@H]1OC(=O)[C@H](C)[C@@H](O[C@H]2C[C@@](C)(OC)[C@@H](O)[C@H](C)O2)C(C)[C@@H](O[C@@H]2O[C@H](C)C[C@H](N(C)C)[C@@H]2O)[C@](C)(OC)C[C@@H](C)C(=O)[C@H](C)[C@@H](O)[C@]1(C)O (stereo partly drawn)	2.7%	-0.2%	-1.9%
N#Cc1ccc(CN2CC3(CCN(C(=O)c4cnccn4)CC3)C2)cc1	2.1%	-3.6%	8.0%
c1cncc(-c2cncnc2NCc2cccs2)c1	3.0%	-13.7%	-0.2%
CNC1[C@@H](O)C(OC2C(N)C[C@H](N)[C@@H](O[C@@H]3OC(C(C)O)C(O)C(O)C3N)C2O)OC[C@]1(C)O (stereo partly drawn)	3.0%	-3.4%	-3.8%
COc1ccc(C2OC3C(CO)OC(n4cnc5c(=O)[nH]c(N)nc54)C3O2)cc1 (stereo not drawn)	5.6%	-9.2%	-3.1%
COc1ccc(-n2c(=O)c(C)nc3cnc(Nc4ccccc4)nc32)cc1	0.4%	-8.0%	17.0%
COc1ncc2nc(-c3ccccc3)c(=O)n(-c3ccccc3)c2n1	-4.0%	-18.2%	4.4%
CC(C)(c1ccc(OC[C@@H]2CO2)cc1)c1ccc(OC[C@H]2CO2)cc1	1.1%	-6.2%	?

Quoted from the listing for reference:
SMILES	Cruzain inh Det	2A StopGo	Cruzain inh noDet
FC(F)(F)c1ccccc1-c1cncnc1Nc1ccccc1	0.8%	-10.3%	-8.7%
Cc1noc(C)c1C(=O)N1CCC2(CCN(C(=O)NC(C)C)CC2)CC1	1.4%	-9.9%	-4.4%
CCCCC/C=C\C/C=C\CCCCCCCC(=O)O	-3.4%&-23.7%	4.7%[6.7 µM]	5.0%&-12.3%
CCC(=O)OC1C2CC3=C4CC(=O)OC(c5ccoc5)[C@]4(C)CCC3[C@@](C)(C2=O)C(CC(=O)OC)C1(C)C (stereo partly drawn)	0.9%	-9.8%	4.3%
CC[C@H]1OC(=O)[C@H](C)[C@@H](O[C@H]2C[C@@](C)(OC)[C@@H](O)[C@H](C)O2)C(C)[C@@H](O[C@@H]2O[C@H](C)C[C@H](N(C)C)[C@@H]2O)[C@](C)(OC)C[C@@H](C)C(=O)[C@H](C)[C@@H](O)[C@]1(C)O (stereo partly drawn)	2.7%	-0.2%	-1.9%
N#Cc1ccc(CN2CC3(CCN(C(=O)c4cnccn4)CC3)C2)cc1	2.1%	-3.6%	8.0%
c1cncc(-c2cncnc2NCc2cccs2)c1	3.0%	-13.7%	-0.2%
CNC1[C@@H](O)C(OC2C(N)C[C@H](N)[C@@H](O[C@@H]3OC(C(C)O)C(O)C(O)C3N)C2O)OC[C@]1(C)O (stereo partly drawn)	3.0%	-3.4%	-3.8%
COc1ccc(C2OC3C(CO)OC(n4cnc5c(=O)[nH]c(N)nc54)C3O2)cc1 (stereo not drawn)	5.6%	-9.2%	-3.1%
COc1ccc(-n2c(=O)c(C)nc3cnc(Nc4ccccc4)nc32)cc1	0.4%	-8.0%	17.0%
COc1ncc2nc(-c3ccccc3)c(=O)n(-c3ccccc3)c2n1	-4.0%	-18.2%	4.4%

Some of the compounds tested, so the mix of outcomes need not match the whole.
